From PubChem BioAssay
GIRK2 activ = activators of human GIRK2 potassium channels; P48051; AID 1259325; calls only for hits at 25 µM; HEK293-GIRK2 thallium flux, Thallos fluorescence; 63,000 compounds, 0.05% hits;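 active = among the strongest 0.2% of first-round signals and kept after retests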;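 note: first round at about 10 µM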
Target sequence (P48051 whole entry, looked up): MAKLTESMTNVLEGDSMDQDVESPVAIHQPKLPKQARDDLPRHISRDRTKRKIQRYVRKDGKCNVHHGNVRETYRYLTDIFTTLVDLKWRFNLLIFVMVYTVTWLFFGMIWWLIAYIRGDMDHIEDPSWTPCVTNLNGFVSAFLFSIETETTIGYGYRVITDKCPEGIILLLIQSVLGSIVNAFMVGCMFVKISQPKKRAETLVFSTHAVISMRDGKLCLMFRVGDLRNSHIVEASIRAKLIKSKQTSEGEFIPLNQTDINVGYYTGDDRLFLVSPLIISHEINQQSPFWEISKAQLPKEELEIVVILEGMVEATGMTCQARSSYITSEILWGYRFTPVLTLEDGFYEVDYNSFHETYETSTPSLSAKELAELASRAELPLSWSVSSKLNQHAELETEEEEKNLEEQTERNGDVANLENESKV
Calls only; i = inactive. Some of the compounds tested; the hit share may differ from the screen's.

GIRK2 activ | canonical_smiles
i | O=C(NCC1CCN(C(=O)Oc2ccccc2)CC1)C1c2ccccc2Oc2ccccc21
i | CC(C)(C)NC(=O)N1CCC(Oc2ccc(C(F)(F)F)cn2)CC1
i | Cn1c(SCc2nc(-c3ccc(Cl)cc3)no2)nc2ccsc2c1=O
i | O=C(NCc1nc2ccccc2[nH]1)c1ccc([N+](=O)[O-])cc1
i | COc1ccc(S(=O)(=O)NCCc2ccoc2)cc1F
i | COc1ccccc1N1CCN(Cc2cc(=O)oc3ccc(Cl)cc23)CC1
i | CCc1cnc2c(c1SCC(=O)Nc1nccs1)c(=O)n(C)c(=O)n2C
i | O=C(Cn1c(-c2nc(-c3ccccc3)no2)cccc1=O)Nc1ccc(F)cc1F
i | CCOc1ccc(N2CC(C)Cn3c2nc2c3c(=O)n(Cc3ccccc3)c(=O)n2C)cc1 (centres undefined)
i | COC(=O)c1ccc(CN2CC(c3nc(Cc4ccccc4)no3)C2)o1

Continuation:
GIRK2 activ | canonical_smiles
i | N#Cc1nc(-c2ccc(S(=O)(=O)N3CCOCC3)cc2)oc1N1CCC(C(N)=O)CC1
i | O=C(NCCc1ccncc1)C1CCN(C(=O)NCc2cccs2)CC1
i | O=C(NCCn1ncccc1=O)c1ccc2c(c1)OCO2
i | N#CCSc1nccc2c(OCc3ccc(F)cc3)cccc12
i | CSc1ccccc1NC(=O)c1ccc(S(=O)(=O)N(C)C)o1
i | Cc1ccc(NC(=O)Cn2nc3ccc(SC(C)C)nn3c2=O)cc1C
i | O=C(c1ccc([N+](=O)[O-])cc1)N(CCN1CCOCC1)c1nc2c(F)cc(F)cc2s1
i | O=C(COC(=O)c1ccccc1Br)c1ccc(NC(=O)c2ccccc2)cc1
i | Cn1c(=O)c(Cl)nc2cccnc21
i | COc1cc(-c2noc(CN3C(=O)C(C)Oc4ccccc43)n2)cc(OC)c1OC (centres undefined)

Following part
GIRK2 activ | canonical_smiles
i | Cc1cc(C(=O)N2CCN(C(=O)C3CC3c3ccc4c(c3)OCO4)CC2)c(C)o1 (centres undefined)
i | CCC(Sc1nc2cc(OC)c(OC)cc2c2nc(C)nn12)C(=O)N1CCOCC1 (centres undefined)
i | COc1ccc(NC(=O)C2CCN(c3cnc4ccccc4n3)CC2)cc1OC
i | COc1cccc(CNC(=O)Cn2c(=O)c(CNc3ccc(C)cc3)cc3ccc(OC)cc32)c1
i | COc1ccc(N2C(=O)C3N=NN(CC(=O)Nc4ccc(C)cc4)C3C2=O)cc1Cl (centres undefined)
i | O=C(NCCC(O)c1cccc2ccccc12)Nc1ccccc1 (centres undefined)
i | CCOc1ccc(S(=O)(=O)c2cnc(SCC(=O)Nc3cccc(C)c3)[nH]c2=O)cc1
i | CS(=O)(=O)NCC1CCC(C(=O)NCCc2ccc(S(N)(=O)=O)cc2)CC1 (centres undefined)
i | CCOc1ccc(-c2ccc(OCCNC(=O)c3ccco3)nn2)cc1
i | O=C(c1ccc(Cn2c(=O)[nH]c3ccccc3c2=O)cc1)N1CCN(c2ccc(F)cc2)CC1

Ordered by molecular weight (smallest number first): some entries from above
GIRK2 activ | canonical_smiles
i | CCOc1ccc(-c2ccc(OCCNC(=O)c3ccco3)nn2)cc1
i | O=C(c1ccc(Cn2c(=O)[nH]c3ccccc3c2=O)cc1)N1CCN(c2ccc(F)cc2)CC1
i | CCOc1ccc(S(=O)(=O)c2cnc(SCC(=O)Nc3cccc(C)c3)[nH]c2=O)cc1
i | COc1cccc(CNC(=O)Cn2c(=O)c(CNc3ccc(C)cc3)cc3ccc(OC)cc32)c1

(next part)
GIRK2 activ | canonical_smiles
i | COc1ccc(S(=O)(=O)c2ccc(NCCc3c[nH]c4ccc(OC)cc34)nn2)cc1
i | COc1ccc(C)cc1S(=O)(=O)N(CCc1cccs1)C1CC1
i | CCOc1ccc(Cc2nnc(Nc3cc(C)ccc3OC)[nH]c2=O)cc1
i | O=C(c1cc2ccccc2o1)N1CCN(Cc2ccsc2)CC1
i | O=C(Nc1nc2c(s1)CN(C(=O)CSc1ccc(F)cc1)CC2)NC1CCCC1
i | COc1cc(NC(=O)Cn2c(C)nc(-c3ccccn3)cc2=O)cc(OC)c1OC
i | O=C(Nc1nc2c(Cl)c(Cl)ccc2s1)C1CCCCC1
i | COc1ccc(-c2coc3c4c(ccc3c2=O)OCN(C2CC2)C4)cc1OC
i | COc1cc(C(=O)N2CC(Oc3nc4c(C)cccc4s3)C2)cc(OC)c1OC
i | O=C(Nc1nccs1)c1ccc(S(=O)(=O)N(Cc2ccco2)C2CC2)o1

Next part:
GIRK2 activ | canonical_smiles
i | Cc1nc(-c2ccccc2Cl)sc1CNC(=O)NCc1cccs1
i | COC(=O)C1=CO[C@@H](O[C@@H]2O[C@H](CO)[C@@H](O)[C@H](O)[C@H]2O)[C@@H]2[C@@H](C(=O)O)CC[C@H]12
i | O=C(C(=O)N1CCCC1)c1cn(CC(=O)N2CCOCC2)c2ccccc12
i | Cc1cccc(NC(=O)Nc2nccn(-c3cc(C)cc(C)c3)c2=O)c1
i | COc1nn(C)cc1C(=O)NCC(O)c1ccc(C)o1 (centres undefined)
i | O=C(CSc1ncccn1)Nc1ncc(Cc2ccccc2)s1
i | O=C(Nc1cccc(N2CCCS2(=O)=O)c1)c1nc2ccccc2s1
i | Cc1c(C(=O)O)nnn1-c1ccc(Br)cc1
i | Cc1ccc(OCCCCn2c(CO)nc3ccccc32)cc1C
i | Cc1cc(C)c2sc(NC(=O)c3cc4ccccc4o3)nc2n1

Continued:
GIRK2 activ | canonical_smiles
i | O=C(Nc1ccc2c(c1)OCO2)N1CCN(c2ccc(-c3ccc4c(c3)OCO4)nn2)CC1
i | CC(C)(C)C1CCc2c(sc3nc(CCC(=O)N4CCN(c5ccc(F)cc5)CC4)[nH]c(=O)c23)C1 (centres undefined)
i | Cc1cccc2sc(N(CCN3CCOCC3)C(=O)c3nc4ccccc4s3)nc12
i | CC(C)c1nnc(C2CCN(C(=O)c3cccc(Cl)c3)CC2)o1
i | Cc1ccc(-n2nnc(C(=O)NCc3cccnc3)c2-c2ccncc2)cc1C
i | O=C(CSc1nnc(N2CCN(C(=O)CC3CCCC3)CC2)s1)Nc1ccccc1
i | COc1ccc(N2CCCn3c2nc2c3c(=O)n(Cc3ccccc3)c(=O)n2C)cc1
i | CCOc1ccccc1NC(=O)c1csc(Nc2ccc(OC(F)F)cc2)n1
i | CCOCCn1c(=O)c2c(nc3n2CC(C)CN3c2ccccc2C)n(C)c1=O (centres undefined)
i | COC(=O)C1=C(CS(=O)(=O)c2ccc(C)cc2)NC(=O)NC1c1ccccc1 (centres undefined)

The results go on:
GIRK2 activ | canonical_smiles
i | CCCCCn1c(SCC#N)nc2cc(C(=O)N3CCc4ccccc4C3)ccc2c1=O
i | CCOc1ccccc1NCc1cc(=O)oc2cc(C)c(O)cc12
i | CC(=O)Cn1c(=O)c2c(nc3n(-c4ccc(C)c(C)c4)c(-c4ccccc4)cn23)n(C)c1=O
i | O=C(NCCCOc1cccc2cccnc12)c1c(F)cccc1F
i | COc1ccc(N2CCN(S(=O)(=O)c3cccc(C)c3)CC2)cc1
i | COc1cccc(NC(=O)C(=O)NCCC2CCCCN2S(=O)(=O)c2ccccc2)c1 (centres undefined)
i | O=C(c1nnn(-c2ccc(Cl)cc2)n1)N1CCN(C(=O)c2ccco2)CC1
i | CCN(CC)S(=O)(=O)c1ccc(-c2nc(C#N)c(NCCN3CCOCC3)o2)cc1
i | COc1ccc(N2CCN(C(CNS(=O)(=O)c3ccc(OC)c(C)c3)c3cccnc3)CC2)cc1 (centres undefined)
i | COC(=O)N1CCC(CNC(=O)c2cc(C3CC3)on2)CC1

Next results.
GIRK2 activ | canonical_smiles
i | O=C(Cn1c(=O)cnc2cc(S(=O)(=O)N3CCCCC3)ccc21)NCc1ccco1
i | Cc1cc(N2CCCCC2)nc(N2CCN(C(=O)c3ccccc3)CC2)n1
i | Cn1c(SCC(=O)N2CCCC2)nc2cc(-c3ccccc3)sc2c1=O
i | COc1ccccc1NC(=O)CSc1cc(-n2nc(C)cc2C)ncn1
i | C=C[C@@]1(C)CCC2=C([C@H]1OC(C)=O)[C@H](OC(C)=O)CC1[C@](C)(C(=O)OC)CC[C@H](OC(C)=O)[C@]21C (some centres undefined)
i | O=C(Cc1ccccc1Cl)N1CC(c2nc(-c3ccc[nH]c3=O)no2)C1
i | COc1ccc(CC(=O)N2c3ccccc3NC(=O)CC2C)cc1OC (centres undefined)
i | Cc1ccc(C)c(S(=O)(=O)Nc2ccc3sc(C)nc3c2)c1
i | COc1cccc(C(=O)Nc2ccc3c(c2)CCCN3C(=O)C(C)C)c1
i | COc1ccc(Cl)cc1S(=O)(=O)NCc1ccccn1

Pulled one by one from above, 4 records:
GIRK2 activ | canonical_smiles
i | COc1ccccc1NC(=O)CSc1cc(-n2nc(C)cc2C)ncn1
i | O=C(Cc1ccccc1Cl)N1CC(c2nc(-c3ccc[nH]c3=O)no2)C1
i | COc1ccc(Cl)cc1S(=O)(=O)NCc1ccccn1
i | COc1cccc(C(=O)Nc2ccc3c(c2)CCCN3C(=O)C(C)C)c1

(cont.)
GIRK2 activ | canonical_smiles
i | Cc1cccc(-c2noc(CS(=O)(=O)c3ccc(Cl)s3)n2)c1
i | CCOc1ccc2nc(NC(=O)c3csc(Nc4ncccn4)n3)sc2c1
i | COc1ccc(CCNC(=O)CN2CCN(Cc3nc(-c4cccs4)cs3)CC2)cc1OC
i | O=C(c1ccc(OC(F)(F)F)cc1)N1CCC2(CC1)OCCS2
i | CC(=O)NS(=O)(=O)c1ccc(NC(=O)c2ccc(-n3nc(C)cc3C)nn2)cc1
i | O=C(CCSc1ccccc1)N1CCC(c2ccccc2)C1 (centres undefined)
i | COc1ccc(NC(=O)c2ccccc2NS(=O)(=O)c2ccccc2)c([N+](=O)[O-])c1
i | COc1ccc(-c2ccc(=O)n(CCNS(=O)(=O)c3cc(C)ccc3OC)n2)cc1
i | COc1ccc(NC(=O)CSc2nc3c(sc(=S)n3-c3ccccc3)c(=O)[nH]2)cc1OC
i | CC(C)(C)c1csc(CN2CCN(C(=O)c3cccc(Cl)c3)CC2)n1

(next part)
GIRK2 activ | canonical_smiles
i | O=C1CC(C(=O)Nc2ccccc2)Nc2ccccc21 (centres undefined)
i | O=C(NC1CCN(Cc2noc(-c3ccccc3)n2)C1)C1CC(=O)N(c2cccc(F)c2)C1 (centres undefined)
i | CCn1cnc2c(-c3ccccc3)cn(CC(=O)Nc3ccccc3Cl)c2c1=O
i | O=C1NC(=NCCc2cccs2)S/C1=C\c1ccc2ncccc2c1
i | COc1ccccc1NC(=O)Cn1nc2c(Oc3ccc(Cl)cc3)nccn2c1=O
i | COc1ccc(S(=O)(=O)N2CCC(c3nc(-c4ccc5c(c4)OCO5)no3)CC2)cc1
i | COCC(=O)N1CCC(Cn2ccnc2C(C)C)CC1
i | CN(CCO)S(=O)(=O)c1ccc2c(c1)C(O)c1cc(S(=O)(=O)N(C)CCO)ccc1-2
i | COc1ccc(OC)c(N2CCn3c2nc2c3c(=O)n(Cc3ccc(C)cc3)c(=O)n2C)c1
i | O=c1c2ccccc2n(Cc2nc(-c3cccc(Cl)c3)no2)c(=O)n1CC1CCCO1 (centres undefined)

Following part:
GIRK2 activ | canonical_smiles
i | Cc1nc(N2CCN(C(=O)c3ccc(C(F)(F)F)cc3)CC2)cc(-n2cccc2)n1
i | CC(C)(C)C(=O)N(CCc1cccs1)C1CC1
i | O=C(Nc1ccc2c(c1)N(C(=O)C1CCCC1)CC2)c1ccc(C(F)(F)F)cc1
i | Cc1cccc(-c2csc3c(=O)[nH]c(N4CCC(C(=O)NCc5ccco5)CC4)nc23)c1
i | CN(C)C(=O)c1nnn(-c2ccc(NC(=O)NCc3ccc(Cl)cc3)cc2)n1
i | O=C(Nc1ccccc1Cl)c1n[nH]n2c1nc(=O)c1cc(Cl)ccc12
i | COc1ccc(CCNC(=O)c2ccc(NS(=O)(=O)c3cc(C)ccc3C)cc2)cc1OC
i | O=C(Nc1nc(-c2ccncc2)cs1)C1CCCCN1S(=O)(=O)c1cccs1 (centres undefined)
i | Cc1nn(C)c(C)c1CCC(=O)NCC(F)(F)F
i | O=S(=O)(C1CC1)N1CCC(CSCc2ccco2)CC1

Next entries
GIRK2 activ | canonical_smiles
i | CC(C)S(=O)(=O)c1cccc(C(=O)N(Cc2ccncc2)c2nc3c(Cl)cccc3s2)c1
i | C#CCOCC1CCN(C(=O)CSC2CCCC2)CC1
i | COc1ccc(-c2coc3cc(OCCN4CCC(C(N)=O)CC4)ccc3c2=O)cc1OC
i | CC(=O)Nc1ccc(C(=O)CC2(O)C(=O)Nc3ccccc32)cc1 (centres undefined)
i | O=C(NC1CCCCC1)c1nnn(-c2ccccc2)c1-c1ccccn1
i | O=C(NCCOc1ccc2c(c1)OCO2)c1c(F)cccc1F
i | CCOc1ccc(NC(=O)Cn2c(C)cc(C)c(-c3nc(-c4ccc(OC)cc4)no3)c2=O)cc1
i | Cc1ccc(NC(=O)c2ccc(CNS(=O)(=O)c3cccc(Cl)c3)cc2)cc1
i | O=C(NCc1cccnc1)c1ccc(S(=O)(=O)Nc2ccc3c(c2)OCO3)o1
i | O=C(CSc1ncc(S(=O)(=O)c2ccc(Cl)cc2)c(=O)[nH]1)Nc1ccc(Cl)cc1F

Four entries from above, set out differently:
smiles: CCOc1ccc(NC(=O)Cn2c(C)cc(C)c(-c3nc(-c4ccc(OC)cc4)no3)c2=O)cc1
  GIRK2 activ = i
smiles: O=C(NC1CCCCC1)c1nnn(-c2ccccc2)c1-c1ccccn1
  GIRK2 activ = i
smiles: C#CCOCC1CCN(C(=O)CSC2CCCC2)CC1
  GIRK2 activ = i
smiles: O=C(NCCOc1ccc2c(c1)OCO2)c1c(F)cccc1F
  GIRK2 activ = i

Additional records.
GIRK2 activ | canonical_smiles
i | CC(Oc1ccccc1)C(=O)NCC1(O)CCc2ccccc2C1 (centres undefined)
i | COC(=O)c1ccc(S(=O)(=O)NCC(c2cn(C)c3ccccc23)N(C)C)cc1 (centres undefined)
i | COCC(=O)Nc1cnc(N(C)C)nc1
i | COc1ccc(-c2noc(-c3ccc(=O)n(Cc4ccc(N5CCCC5=O)cc4)c3)n2)cc1
i | CNS(=O)(=O)c1c(C)cc(C)c(N(C)S(=O)(=O)c2ccc(Cl)cc2)c1C
i | Cc1c(Cl)cccc1NC(=O)COc1ccc(-n2cccn2)nn1
